Screening data (PubChem)
T cruzi repl – inhibitors of intracellular T. cruzi growth, primary screen, luminescence, NIH3T3 host cells; T. cruzi beta-gal in NIH3T3, 90 h; inhibition, % (concentration not given with the values); 300,000 compounds, 1.4% hits; AID 1885, 2009;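 active means mean inhibition across valid replicates above about 55%, limit read from the data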;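 further: signal also drops with host cell toxicity which is not excluded here; 0% = plate median of DMSO wells and 100% = zero luminescence signal; higher percent means less beta-gal luminescence so fewer parasites; stock transfer was 50 nL into about 50 µL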
A1 inh – caspase 3/7 activation in MEF A1-2A-BIM cells, primary screen, A1 inhibitor project, cell-based, luminescence, HTS. Caspase-Glo 3/7 luminescence, 3 h; percent of clofoctol response, vehicle zero. 330,000 compounds, 0.066% hits. AID 2462, 2010. caspase activation, % (test concentration not listed);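 active means over half of replicate activation scores above 10%, or exactly half above 10 with the replicate mean above 10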;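 further: wells of about 30 µL received 50 nL stock; many hits fall short of the cut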
AF4-AF9 inh – inhibitors of AF4 peptide binding to AF9, primary screen, biochemical, AlphaScreen, biotin-AF4 peptide, FLAG-AF9, single point; Protein AF-9 (Homo sapiens), P42568; inhibition, % at 10 µM; 350,000 compounds, 0.47% hits;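 active means every replicate reaching a set inhibition limit, whatever the replicate mean, cut at about 25% in these data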;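 further: 0% = plate neutral control median and 100% = total signal loss; the record names both 10 and 1 µM as test concentration; the first replicate is given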
Target sequence (P42568 whole entry, looked up): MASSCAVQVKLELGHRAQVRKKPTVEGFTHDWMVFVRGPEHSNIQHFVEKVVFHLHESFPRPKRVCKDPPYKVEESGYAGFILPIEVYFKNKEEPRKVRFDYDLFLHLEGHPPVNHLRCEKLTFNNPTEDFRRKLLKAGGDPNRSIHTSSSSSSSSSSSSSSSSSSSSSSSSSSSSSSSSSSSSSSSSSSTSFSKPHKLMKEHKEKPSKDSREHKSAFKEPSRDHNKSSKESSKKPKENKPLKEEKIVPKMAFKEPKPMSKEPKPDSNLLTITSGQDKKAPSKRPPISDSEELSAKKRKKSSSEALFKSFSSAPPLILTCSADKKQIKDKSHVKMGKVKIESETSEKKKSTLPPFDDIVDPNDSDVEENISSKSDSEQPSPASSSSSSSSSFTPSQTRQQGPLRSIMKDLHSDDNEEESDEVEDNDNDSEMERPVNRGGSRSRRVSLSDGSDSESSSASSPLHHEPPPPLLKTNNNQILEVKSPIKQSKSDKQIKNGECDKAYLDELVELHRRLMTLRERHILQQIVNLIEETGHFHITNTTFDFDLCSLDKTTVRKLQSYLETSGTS
Beta cell apopt – inhibitors of cytokine-induced beta cell apoptosis, primary screen, luminescence | INS-1E cytokine-induced death, ATP luminescence, 48 h; percent of positive-control rescue, neutral wells zero | protection from apoptosis, % (no concentration beside the values) | 300,000 compounds, 0.8% hits | AID 435005, 2010;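 active means all replicates at 75% or more, or half of them and the mean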;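 further: 0% = cytokine-treated negative control wells and 100% = positive control rescue; higher means more ATP so stronger rescue from cytokine killing; wells of about 40 µL received 100 nL stock; the first replicate is given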
rRNA inh HTS – reduced GFP signal of wild-type E. coli, primary screen, bacterial rRNA inhibitor project, GFP/RFP fluorescence, OD600, single point; E. coli WT GFP vs humanized-ribosome RFP mutants, 24 h; hits give low values; DMSO median 0, no signal -100; GFP signal change (wild-type ribosome), % (no concentration beside the values); 350,000 compounds, 1.6% hits; AID 720706, 2013;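 active means significant combined selectivity score with lowered wild-type GFP, culture density cut under 30%, mutant RFP and density less affected; inactive means any of these conditions unmet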; further: one replicate is shown; some compounds called inactive have numbers as strong as hits
FGF22 binding – binders of human FGF22 protein, primary screen, FGF22 synaptogenesis inhibitor project, biophysical, thermal shift, single point | recombinant FGF22 thermal shift, SYPRO orange fluorescence; percent of sucrose octasulfate shift, DMSO zero | 340,000 compounds, 1.5% hits | AID 651658, 2012 | Fibroblast growth factor 22 (Homo sapiens), Q9HCT0 | calls only at 9.99 µM;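 active means melting point raised past a set limit in the mean and every replicate; three in four hits are not shown here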
Target sequence (Q9HCT0 whole entry, looked up): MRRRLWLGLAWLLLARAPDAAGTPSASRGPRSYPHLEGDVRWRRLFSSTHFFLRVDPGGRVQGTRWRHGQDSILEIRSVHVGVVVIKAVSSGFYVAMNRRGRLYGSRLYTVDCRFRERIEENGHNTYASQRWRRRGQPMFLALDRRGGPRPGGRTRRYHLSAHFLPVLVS
UCH37 inh – inhibitors of human UCH37 deubiquitinase, primary screen, biochemical, Ub-AMC cleavage, fluorescence. Ubiquitin carboxyl-terminal hydrolase isozyme L5 (Homo sapiens), Q9Y5K5. purified proteasome/UCH37. inhibition, % (test concentration not listed). 330,000 compounds, 0.33% hits. AID 588478, 2011;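 active means mean of two replicates above 20%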;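 further: 0% = compound-free wells with enzyme and 100% = wells lacking proteasome; stock transfer was 100 nL into about 20 µL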
Target sequence (Q9Y5K5 whole entry, looked up): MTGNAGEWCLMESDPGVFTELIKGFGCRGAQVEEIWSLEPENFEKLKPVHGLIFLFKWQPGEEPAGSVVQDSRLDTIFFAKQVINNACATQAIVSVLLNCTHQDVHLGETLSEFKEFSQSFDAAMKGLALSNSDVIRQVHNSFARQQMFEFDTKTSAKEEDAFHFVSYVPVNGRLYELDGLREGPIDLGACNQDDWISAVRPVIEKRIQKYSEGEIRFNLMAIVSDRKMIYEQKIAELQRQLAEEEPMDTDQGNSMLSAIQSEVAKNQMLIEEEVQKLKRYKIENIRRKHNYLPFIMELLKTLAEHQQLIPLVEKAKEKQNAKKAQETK
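Material: human UCH37 enzyme supplied as purified proteasome complex. Measure: % inhibition of Ub-AMC cleavage fluorescence. Medium: pH 7.4 Tris-HCl (50 mM) with ovalbumin, ATP-MgCl2, DTT. Times: 30 min preincubation with enzyme, 25 min cleavage at room temperature. Detection: AMC fluorescence intensity at 355/460 nm.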
E coli growth – E. coli growth inhibition, primary screen, OD600 | Escherichia coli growth, 23 h; hits give low values | OD600 absorbance (test concentration not listed) | 330,000 compounds, 0.21% hits;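 active means OD600 absorbance below the run mean of sample wells minus 3.6 SD, in any replicate, cut at about 0.56 in these data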;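 further: stock transfer was 300 nL into about 60 µL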
rRNA inh HTS OD600 – second read-out of rRNA inh HTS, no call of its own (marks repeat the call); OD600 change, %; measured here: OD600 growth;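 optical density of the mix in the first replicate; 0 = DMSO median and -100 = no signal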
rRNA inh HTS RFP – second read-out of rRNA inh HTS, no call of its own (marks repeat the call); RFP signal change, %; measured here: RFP humanized mutant strains;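 first replicate; 0 = DMSO median and -100 = no signal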
Numbers without * were called inactive; i = inactive; / = no result given. A portion of the library, so the mix of outcomes need not match the whole.

Order of results – UCH37 inh	rRNA inh HTS OD600	A1 inh	rRNA inh HTS	FGF22 binding	Beta cell apopt	AF4-AF9 inh	T cruzi repl	rRNA inh HTS RFP	E coli growth
- CC(=O)c1cccc(S(=O)(=O)NCCC(=O)O)c1
 : 0.5	9	0.0	17	i	-7	0.2	-7	0.4	0.7
- O=C(Nc1cc(S(=O)(=O)N2CCOCC2)ccc1N1CCOCC1)c1cccc(S(=O)(=O)N2CCCCC2)c1
 : 4.3	-5	-0.6	-6	i	0	-12	39	4.5	0.71
- COc1ccccc1NC(=O)CSc1nncn1-c1ccccc1
 : 4.3	-8	0.5	-3	i	-8	-3.5	-7	-2.6	0.68
- O=c1cc(O)nc(SC23CC4CC(CC(C4)C2)C3)[nH]1
 : 4.3	-5	-1.1	3	i	-6	1.9	-28	6.3	0.69
- O=C(Nc1ccccc1N1CCN(c2ccc(F)cc2)CC1)c1ccccc1
 : 4.7	/	1.6	/	/	-7	/	18	/	0.74
- Cc1c(CC(=O)NCCC(C)C)c(=O)oc2cc3c(cc12)CCC(C)(C)O3
 : -476	14	0.2	7	i	5	-0.7	3	-0.9	0.66
- CC(=O)N1CCCC1(C(=O)O)c1ccccc1 (stereo not given)
 : 3.8	16	1.2	19	i	-5	-8.1	-15	0.7	0.66
- OCCNc1nnc(-c2ccccc2)c(-c2ccccc2)n1
 : 6.5	-1	0.0	4	i	-9	/	-7	-0.9	0.63
- COc1ccc(/C=N/Nc2nc(=O)[nH]nc2C)cc1OC
 : /	1	-2.4	9	i	-3	0.0	5	-3.5	/
- COc1cc(C(=O)NCc2ccc(-n3cccc3)cc2)cc(OC)c1OC
 : 1.8	/	0.8	/	/	-12	/	11	/	0.66
- Cc1cc(C)c2nc(C(F)(F)F)nc(N3CC(C)OC(C)C3)c2c1 (stereo not given)
 : -5.3	/	-0.7	/	/	6	/	24	/	0.72
- Cc1c(NC(=O)c2nn3c(C(F)(F)F)cc(-c4ccccc4)nc3c2Br)c(=O)n(-c2ccccc2)n1C
 : 5.5	/	0.7	/	/	-7	/	-5	/	0.68
- O=S(=O)(NCc1ccccc1)c1ccc(S(=O)(=O)N(Cc2cccs2)CC2CCCO2)cc1 (stereo not given)
 : 0.8	/	-1.5	/	/	1	/	2	/	0.66
- COc1ccc(NC(=O)c2ccccc2CC[N+](=O)[O-])cc1
 : 1.6	10	-0.2	10	i	-3	-1.3	-2	2.1	0.68
- Cc1nn(C)c(C)c1NC(=O)c1ccc(Cl)cc1
 : 0.4	/	0.4	/	/	-1	/	-12	/	0.71
- CN(C(=O)COC(=O)C1=COCCO1)C1(C#N)CCCCC1
 : 2.2	16	0.4	21	i	0	-1.5	/	1.7	0.62
- O=C(O)c1cccnc1-c1ncccc1C(=O)O
 : 5.2	7	0.1	3	/	-6	/	1	1.5	0.71
- CC1CC(C)CN(C(=O)c2ccc3c(c2NCCO)C(=O)c2ccccc2C3=O)C1 (stereo not given)
 : 5.9	/	-0.3	/	/	7	/	5	/	0.67
- COc1ccc(CCNC(=O)c2nnn(-c3cccc(C)c3)c2N)cc1OC
 : 0.6	/	-0.3	/	/	0	/	6	/	0.67
- Cc1cccc(C)c1NC(=S)N/N=C/c1c(Cl)cccc1Cl
 : /	6	0.8	10	i	4	-2.1	9	0.2	/
- CC1(C)CC(=O)C(=Cc2cn(CCC#N)nc2-c2ccc(Cl)cc2)C(=O)C1
 : 0.7	5	-0.8	4	i	-14	-4.6	-5	-2.0	0.69
- CCOC(=O)c1c(NC(=O)COC(=O)c2cccnc2OCC)sc(C(=O)N(CC)CC)c1C
 : -5.5	10	-0.6	4	i	9	5.5	/	3.1	0.62
- COc1ccc(CCNC(=O)Cc2cccs2)cc1OC
 : 1.6	5	0.1	0	i	2	-0.4	-5	-2.9	0.65
- C=CCOC(=O)C1=C(C)NC(=O)NC1/C=C/c1ccccc1OC (stereo not given)
 : -4.5	5	-0.5	18	i	0	-2.3	5	4.1	0.69
- O=[N+]([O-])c1ncn(C23CC4CC(CC(C4)C2)C3)n1
 : 5.0	0	0.2	10	i	4	-0.5	21	-2.7	0.67
- Cc1cccc(N2CCN(C(=O)CCS(=O)(=O)c3ccc4c(c3)oc(=O)n4C)CC2)c1C
 : 3.1	-4	1.4	5	i	0	1.2	11	3.1	0.7
- O=C(NCCc1ccc(Cl)cc1Cl)C1=CC=CN2CCS(=O)(=O)N=C12
 : -69	/	0.2	/	i	4	-1.8	/	/	0.69
- CCN(CC)Cc1c[nH]c2c(C(=O)OC)cccc12
 : -31	-2	/	2	i	/	-0.1	10	0.3	0.68
- O=C(NNC(=O)c1cc2ccccc2cc1O)Nc1ccccc1F
 : -18	1	-0.7	-2	i	1	-1.5	-9	1.1	0.68
- CC(OC(=O)CN1C(=O)c2ccccc2C1=O)C(=O)NC1(C#N)CCCCC1 (stereo not given)
 : -0.6	8	0.1	4	i	5	3.8	/	-0.4	0.66

4 entries from above, with bars between the fields.
SMILES | UCH37 inh | rRNA inh HTS OD600 | A1 inh | rRNA inh HTS | FGF22 binding | Beta cell apopt | AF4-AF9 inh | T cruzi repl | rRNA inh HTS RFP | E coli growth
C=CCOC(=O)C1=C(C)NC(=O)NC1/C=C/c1ccccc1OC (stereo not given) | -4.5 | 5 | -0.5 | 18 | i | 0 | -2.3 | 5 | 4.1 | 0.69
O=[N+]([O-])c1ncn(C23CC4CC(CC(C4)C2)C3)n1 | 5.0 | 0 | 0.2 | 10 | i | 4 | -0.5 | 21 | -2.7 | 0.67
Cc1cccc(N2CCN(C(=O)CCS(=O)(=O)c3ccc4c(c3)oc(=O)n4C)CC2)c1C | 3.1 | -4 | 1.4 | 5 | i | 0 | 1.2 | 11 | 3.1 | 0.7
O=C(NCCc1ccc(Cl)cc1Cl)C1=CC=CN2CCS(=O)(=O)N=C12 | -69 | / | 0.2 | / | i | 4 | -1.8 | / | / | 0.69

Next results.
Order of results – UCH37 inh	rRNA inh HTS OD600	A1 inh	rRNA inh HTS	FGF22 binding	Beta cell apopt	AF4-AF9 inh	T cruzi repl	rRNA inh HTS RFP	E coli growth
- CC(=O)OCc1c(C(F)(F)F)nn(C)c1Oc1ccccc1
 : 5.2	/	0.0	/	/	-7	/	-16	/	0.67
- Cc1ccc(C(=O)OCc2nnc(-c3ccc(Br)cc3)o2)cc1
 : 4.6	9.0*	1.3	-16*	i	-3	-2.4	-1	-1.8*	0.68
- Cc1cccc(C)c1N(CC(=O)N1CCOCC1)S(C)(=O)=O
 : -0.6	7	0.2	18	i	/	0.9	-7	6.7	0.62
- CCC(=O)c1ccc(N2CCN(C(=O)c3cc([N+](=O)[O-])ccc3N3CCN(C)CC3)CC2)c(F)c1
 : 14	/	1.0	/	/	1	/	18	/	0.69
- Cc1cccc(OCc2nnc(SCC(=O)Nc3ccc(N4CCOCC4)cc3)o2)c1
 : 1.0	4	-0.9	3	i	1	0.1	-11	-0.4	0.67
- Cc1ccc(C)c(N2CCN(C(=O)C3CCCN(c4ncnc5c4nc4n5CCCCC4)C3)CC2)c1 (stereo not given)
 : 2.9	-16	-2.0	-15	i	13	13	37	0.2	0.72
- COc1cccc(-c2nc(C(N)=O)c3[nH]c(=O)n(-c4cccc(Cl)c4)c3n2)c1OC
 : 4.7	5	-0.4	1	i	3	-2.9	25	-2.1	0.75
- O=C(CCNC(=O)c1ccccc1Cl)Nc1cccc(S(=O)(=O)N2CCCCC2)c1
 : 0.9	-3	/	4	i	/	-0.8	/	0.9	0.72
- OC(C#CCN1CCOCC1)(c1ccccc1)C1CCCCC1 (stereo not given)
 : 2.5	/	1.0	/	/	-4	/	-4	/	0.8
- CCC1Oc2ccc(C)cc2N(CC(=O)NCc2ccccc2OC)C1=O (stereo not given)
 : 7.7	/	0.7	/	/	0	/	-1	/	0.69
- Cc1cc(C)cc(N(CC(=O)Nc2c(C)n(C)n(-c3ccccc3)c2=O)S(C)(=O)=O)c1
 : -0.5	/	0.3	/	/	-6	/	-1	/	0.69
- O=C1c2cccc(OCC(=O)N3N=C(c4cccs4)CC3c3ccc(F)cc3)c2CCN1Cc1cccnc1 (stereo not given)
 : -82	/	-0.3	/	/	2	/	45	/	0.75
- COc1cc(SC)ccc1C(=O)N1CCN(S(=O)(=O)/C=C/c2ccccc2)CC1
 : 3.1	-13	/	1	i	/	-14	/	5.8	0.68
- CCS(=O)(=O)Nc1ccc(C2=NN(C(=O)c3ccccc3)C(c3cccs3)C2)cc1 (stereo not given)
 : 0.9	-20	-0.4	-24	i	-15	0.3	23	6.1	0.64
- COc1ccc(C)cc1Nc1nc(N)c2cc(OC)c(OC)cc2n1
 : -17	/	-0.1	/	/	16	/	35	/	0.67
- Cc1cc(C)c(NC(=O)Cn2cc3c(n2)CCCC3)c(C)c1
 : 3.7	5	0.2	6	i	1	-4.1	4	-4.5	0.77
- Cc1cc(C(F)(F)F)nc(SCC(=O)NC2CC3CCC2C3)n1 (stereo not given)
 : 0.5	/	1.7	/	/	-3	/	10	/	0.7
- Cc1cc(OCC(=O)Nc2cccc(S(=O)(=O)NC3=NCCCCC3)c2)ccc1Cl
 : 4.2	/	0.2	/	/	-23	/	-9	/	0.62
- CC12CCC3c4ccc(OCC(=O)O)cc4CCC3C1CCC2=O (stereo not given)
 : 3.2	-33	/	-30	i	/	-1.1	/	-4.4	0.7
- C/C(CC(=O)NC(C)(C)C)=N\NC(=O)COc1ccc(C)cc1Br
 : /	4	-0.1	0	i	-2	2.1	5	6.4	/
- COc1ccc(N2CC(NS(=O)(=O)c3ccc(F)cc3)CC2=O)cc1 (stereo not given)
 : 2.9	9	0.9	3	i	-6	-3.0	-9	-1.5	0.65
- O=C(Nc1ccccc1Cl)c1c(F)c(F)c(F)c(F)c1F
 : 5.3	/	0.2	/	/	-4	/	7	/	0.66
- O=C(NCCN1CCOCC1)c1ccccc1N1C(=O)[C@@H]2Cc3c([nH]c4ccccc34)C(c3ccc(F)cc3)N2C1=O (stereo not given in full)
 : 3.1	/	0.9	/	i	2	3.9	5	/	0.75
- CN(C)CCNC=C(C(=O)Nc1ccc(Cl)cc1Cl)C(=O)Nc1ccc(Cl)cc1Cl
 : 0.0	/	-0.6	/	/	9	/	29	/	0.69
- COC(=O)N/N=C/c1c[nH]c2ccccc12
 : /	-1	1.5	7	i	/	1.0	-3	-3.0	/
- CCCOc1ccc(S(=O)(=O)NCCN2CCOCC2)c2ccccc12
 : -0.3	/	1.2	/	/	-15	/	30	/	0.74
- CCCCNC(=O)CC1Nc2ccccc2NC1=O (stereo not given)
 : -15	-3	-0.1	-5	i	-6	-11	6	2.6	0.74
- CCn1c(Cc2ccccc2)nnc1SCc1ccc([N+](=O)[O-])cc1
 : 1.1	-4	0.9	0	i	-10	2.4	-3	-1.3	0.72
